Screening results deposited in PubChem BioAssay by several laboratories.
eIF4H FP inh = inhibitors of RNA binding by human eIF4H; Q15056; eIF4H fluorescence polarization binding assay; inhibition, % at 35 µM; 290,000 compounds, 0.94% hits;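 active = 50% or more with normal probe brightness, or confirmed in later tests; inconclusive = above 50% with abnormal brightness, or retests that disagree; inactive = below 50% or failed in later tests; about a fifth of its hits are not listed in these tables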;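 note: calls also rest on retests at 20 µM and on dose response follow-up; 0% = protein and probe with vehicle and 100% = probe without protein; strong numbers were not always called active; many hits fall short of the cut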
UUG fidelity = alters start codon recognition fidelity in yeast; S. cerevisiae UUG-firefly luciferase reporter, luminescence/redox ratio; activity score, % at 18.7 µM; 350,000 compounds, 0.13% hits;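 active = replicate mean at a twofold rise or more, about +100% in these data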;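 note: firefly luciferase made from a UUG start codon reports start codon fidelity; reporter light over untreated wells divided by growth signal over untreated wells; some hits fall short of that in this replicate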
PABP polyA inh = blocks human PABP binding to poly(A) RNA. fluorescence polarization. inhibition, % at 35 µM. 290,000 compounds, 1% hits. AID 2014;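 active = 50% or more with normal probe brightness, or confirmed in later tests; inconclusive = above 50% with abnormal brightness, or retests that disagree; inactive = below 50% or failed in later tests; about a fifth of its hits are not listed in these tables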;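 note: calls also rest on retests at 20 µM and on dose response follow-up; controls were probe without protein and protein plus probe with vehicle; some compounds called inactive have numbers as strong as hits; many hits fall short of the cut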
HIV Env fusion = inhibitors of HIV Env-mediated cell fusion; inhibition, % at 12.3 µM; AID 651610; 360,000 compounds, 1.1% hits; HeLa-JRFL Env/CEM21 cell fusion, luciferase;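 active = mean replicate inhibition score of at least 50 and every replicate individually at or above 50; inconclusive = only one of the two criteria met; inactive = mean below 50 and not all replicates reaching 50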;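 note: 0% = plate neutral controls and 100% = maraviroc near 300 nM; one replicate is shown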
CSC inhib = cancer stem cell inhibition; inhibition, % at 7.5 µM; 300,000 compounds, 1.1% hits; cancer stem cell-like cells viability, luminescence;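 active = mean at 75% or more and at least half the replicates too; inconclusive = mean and replicates disagree; tested in HMLE shEcad cells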;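 note: 0% = median of negative and 100% = median of positive control wells; the first replicate is given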
Rce1 inh = blocks yeast Ras-converting enzyme; Q03530; yeast membranes, quenched prenylated peptide cleavage fluorescence; calls only; 290,000 compounds, 0.27% hits; AID 2563;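 active = fall in fluorescence gain of 50% or more versus controls, with final raw signal at or below 3038400; inconclusive = same 50% fall but final raw signal above 3038400; inactive = fall in fluorescence gain under 50%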;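 note: plate controls were neutral control wells for no effect and wells lacking membranes for full effect; tested at 10 µM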
Target sequence (Q03530 whole entry, looked up): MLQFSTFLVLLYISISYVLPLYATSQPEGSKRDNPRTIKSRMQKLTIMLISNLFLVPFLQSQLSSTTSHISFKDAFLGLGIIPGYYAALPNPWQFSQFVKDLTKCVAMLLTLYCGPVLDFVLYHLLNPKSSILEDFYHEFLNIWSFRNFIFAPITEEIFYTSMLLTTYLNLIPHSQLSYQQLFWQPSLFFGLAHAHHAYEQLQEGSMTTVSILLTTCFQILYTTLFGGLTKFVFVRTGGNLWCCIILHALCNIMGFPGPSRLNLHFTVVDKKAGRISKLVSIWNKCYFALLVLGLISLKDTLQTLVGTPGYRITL
MT1-MMP act inh = blocks activation of human MT1-MMP; AID 651647; HT1080 RFP-PRO-GFP cells, GFP/RFP ratio fluorescence, overnight; percent of plate control window, DMSO zero; GFP/RFP ratio change, % at 20 µM; 360,000 compounds, 0.061% hits;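 active = GFP/RFP ratio change of at least 30% with cell ATP level not reduced by more than half and red fluorescence within 50% of control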; note: strong numbers were not always called active
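Assay system: RFP-PRO-GFP reporter HT1080 cells; read-out basis: GFP/RFP fluorescence ratio; benchmarks: DMSO wells and RFP-L50D-GFP cells; doses: 20 µM single dose, 1% DMSO; schedule: overnight cell settling, then overnight compound exposure, 37 °C, 5% CO2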
eIF4H FP inh retest = second read-out of eIF4H FP inh, no call of its own (marks repeat the call); inhibition, %; compound at 20 µM; confirmation average;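 mean of two retest wells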
PABP polyA inh retest = also measured in PABP polyA inh; calls as there; inhibition, %; compound at 20 µM; confirmation repeats;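 mean of two retest wells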
MT1-MMP act inh RFP = also measured in MT1-MMP act inh; calls as there; RFP signal change, %; measured here: RFP expression control read;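 0 = vehicle wells; hits needed this value within 50% of zero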
* hit, by the source's call; i = inactive; ? = inconclusive; nt = no result given; + = active, no number; & = joins results of further samples. Hits appear at their usual frequency; overall some 2.9% were active at least once.

SMILES	eIF4H FP inh	UUG fidelity	PABP polyA inh	HIV Env fusion	CSC inhib	Rce1 inh	MT1-MMP act inh	MT1-MMP act inh RFP	others
O=C(NC1CCCCCC1)c1c(F)c(F)c(F)c(F)c1F	1	-15	11	-75	-8	i	1	1
Cc1ccccc1NC1=NC(C)(C)N=C(N)N1	0	-12	-10	1	nt	i	1	4
CC1(C)CC(=O)C(C=Nc2ccc(O)cc2)=C(O)C1	4	-13	3	nt	-2	i	6	6
O=C(/C=C/c1ccccc1)N1CCC(N2CCC(C(=O)N3CCOCC3)CC2)CC1	0	-9	14	10	12	i	7	2
Cc1ccc(S(=O)(=O)N(c2cccc(C)c2)C2CCS(=O)(=O)C2)cc1 (stereo unspecified)	5	-10	-5	-57	-13	i	0	3
O=[N+]([O-])c1cc(S(=O)(=O)N2CCCC2)ccc1N/N=C/c1ccncc1	7	-10	7	15	13	i	6	0
CC(C)N(C(=O)[C@H]1C[C@H](CC(=O)NCCC2=CCCCC2)C(=O)N2CCc3c([nH]c4cc(CCC(=O)N(C)C)ccc34)[C@]12C)C(C)C	nt	14	nt	-52	nt	nt	0	-2
CC(=O)N1c2ccccc2C2CCCC[C@H]21 (stereo partly specified)	nt	-19	nt	-18	-11	nt	2	6
CCC(=O)NCCCc1nc(-c2ccccc2)no1	nt	5	nt	-30	-8	i	9	3
O=C1C2CC=C(Cl)CC2C(=O)N1CCC[n+]1cccc2ccccc21 (stereo unspecified)	4	nt	6	9	7	i	-1	4
COc1cccc(CN2CC(C(=O)NCCOc3ccccc3F)CCC2=O)c1 (stereo unspecified)	-6	-8	0	4	4	i	2	2
O=C(Nc1nnc(-c2ccco2)o1)c1cccc(N2C(=O)CCC2=O)c1	?	-19	?	0	-9	i	-1	4
COc1ccc(N2CCN(C(=O)CCS(=O)(=O)c3ccc4c(c3)CCN4C(=O)C3CC3)CC2)cc1	24	-13	14	10	6	i	6	-4
CSc1ccc(COC(=O)CCS(=O)(=O)c2ccc(C)cc2)cc1	nt	-13	nt	-5	2	i	-2	6
[O-][N+]12CCCCC1CCCC2CO (stereo unspecified)	-2	nt	-4	17	-14	i	1	-1
CC(=O)c1cccc(NC(=O)COC(=O)C2CCCN2C(=O)c2cccs2)c1 (stereo unspecified)	nt	6	nt	28	-16	nt	-10	-1
Cc1[nH]c2ccc(C(=O)N3CCN(c4ccc(F)cc4)CC3)cc2c1C	-12	-7	3	4	-1	i	3	3
CCOc1ccc(C2/C(=C(\O)c3ccc4c(c3)OCCO4)C(=O)C(=O)N2CCCn2ccnc2)cc1OC (stereo unspecified)	-5	-14	-4	-6	-11	i	3	2
CC1=C(C(=O)OCC(Br)(Br)Br)C(c2cccc([N+](=O)[O-])c2)NC(=O)N1CCCC(=O)O (stereo unspecified)	nt	-10	nt	7	4	i	4	3
CCOC(=O)C1CCN(C(=O)c2[nH]c3ccc(OC)cc3c2C)CC1	3	nt	10	-12	-12	i	2	3
N#Cc1ccc(C(=O)Nc2cc(S(=O)(=O)N3CCOCC3)ccc2N2CCOCC2)cc1	nt	-8	nt	-44	nt	nt	4	6
CCN1CCc2c(C#N)c(N3CCOCC3)nc(NCc3ccccc3)c2C1	28	-5	36	nt	nt	i	8	9
CCCCCCCSc1ncnc2[nH]ncc12	nt	-4	nt	-9	nt	nt	0	-2
CC(=O)c1ccc(N(CC(=O)NC2CCCC2)C(=O)CNC(=O)c2ccco2)cc1	84	-5	-7	8	-6	i	2	6	eIF4H FP inh retest=-11;PABP polyA inh retest=5
CN1CCN(c2ccc([N+](=O)[O-])cc2C(=O)c2ccccc2)CC1	1	-1	-2	-203	-6	i	-4	-2
Cc1c(Br)cc(C(=O)N2CCCCCC2)c(C)c1C	-1	17	-5	-231	0	i	-16	0
Cc1ccnc(NC(=O)c2cccc(S(=O)(=O)N3CCN(c4ccc(F)cc4)CC3)c2)c1	nt	-9	nt	20	5	i	4	-10
CN(C)c1ccc(-c2nnc(-c3cccnc3)o2)cc1	-6	7	0	-25	-7	i	1	1
CC1CCCCN1S(=O)(=O)c1ccc2[nH]c(=O)cc(C(=O)NCCCN3CCCCCC3)c2c1 (stereo unspecified)	7	-3	4	-4	-7	i	-2	1
COc1cc(NC(=O)COC(=O)CCCC2=NS(=O)(=O)c3ccccc3N2)cc(OC)c1	nt	9	nt	-2	-15	i	2	4
O=C(CN1CCN(c2ccccc2)CC1)Nc1ccncc1	-7	17	10	-8	-13	i	3	-7
COc1ccc(-c2noc(CSc3nc(N)c(-c4ccccc4)c(=O)[nH]3)n2)cc1	2	1	0	nt	-7	i	-1	-6
Nc1ccc(-c2nc3c(Cl)c(N)ccc3[nH]2)cc1	-10	51	-3	-29	-2	i	16	3
COc1cccc(NC(=O)Cc2cn(C)c3ccccc23)c1	4	-16	7	nt	-7	i	3	1
Cc1ccc(SCCN2CCC(NC(=O)OCc3ccccc3)CCC2=O)cc1 (stereo unspecified)	-7	3	-8	-5	5	i	-2	-3
O=C(NC1CCCC1)C1CCN(S(=O)(=O)N2CCCCC2)CC1	-2	-22	-3	-38	-11	i	2	3
Cn1c(SCC(=O)NC2CCCCC2)nnc1-c1cccc(N)c1	3	-14	15	nt	-5	i	4	0
Cc1cc(F)ccc1S(=O)(=O)Nc1ccccc1C(=O)NCc1ccccn1	-1	nt	6	-2	2	nt	2	4
Cc1ccc(-c2nn(-c3ccccn3)c(=O)c3ccccc23)cc1	-2	-3	-3	8	11	i	5	6
COc1ccc(-c2ccnc(SCC(=O)c3ccc(Br)cc3)n2)cc1	-4	nt	5	-4	14	i	1	4
COc1ccc(NC(=O)CN2C(=O)NC(C)(c3ccc(C)cc3)C2=O)c([N+](=O)[O-])c1 (stereo unspecified)	-8	-4	6	-1	nt	i	1	1
O=C(Nc1nnc(SCc2c(Cl)cccc2Cl)s1)C1CCCO1 (stereo unspecified)	0	-18	6	nt	5	i	-1	6
COc1ccc(C(=O)/C=C/c2ccc(OCc3ccccc3)cc2)cc1CSCC(=O)O	59	-16	9	-24	79*	i	0	0	eIF4H FP inh retest=44;PABP polyA inh retest=14
COC(=O)c1cc(COc2ccc3c4c(c(=O)oc3c2)CCCC4)c(C)o1	-6	-17	0	nt	4	i	-3	1
CC1Cc2cc(/C(O)=C3/C(=O)C(=O)N(CCCn4ccnc4)C3c3ccncc3)ccc2O1 (stereo unspecified)	-9	-17	-7	20	-19	i	3	5
O=C(NCc1ccccc1)NC1CC2CCC(C1)N2Cc1ccco1 (stereo unspecified)	-6	-5	6	-50	9	i	2	2
Clc1ccc(CN2CCC(c3nc4ccc(Cl)cc4[nH]3)CC2)cc1	-2	-17	-13	nt	12	i	-10	-9
COCC(=O)Nc1cc(C(=O)OC)cc(C(=O)OC)c1	2	-19	-1	0	-13	i	-2	3
CCCn1c(SCC(=O)N2CC(=O)Nc3ccccc32)n[nH]c1=O	nt	-10	nt	5	-12	nt	-5	1
CCC(C(=O)OCC(=O)Nc1c(C)n(C)n(-c2ccccc2)c1=O)c1ccccc1 (stereo unspecified)	-5	-15	-2	-12	nt	i	1	-1
C[C@H]1CN([C@@H](C)CO)C(=O)CCCn2nncc2CO[C@H]1CN(C)C(=O)C1CC1	nt	-10&-5	nt	-2	nt	nt	2	4
COc1ccc(S(=O)(=O)NC(=O)C2(C)CCN2C(=O)c2ccccc2CCc2ccccc2)cc1 (stereo unspecified)	nt	-7	nt	-21	nt	nt	-3	1
O=C(c1cncc(Br)c1)N1CCN(S(=O)(=O)c2ccc3ccccc3c2)CC1	nt	4	nt	1	-14	nt	1	1
CCn1cc(/C=C(\NC(=O)c2ccccc2OC)C(=O)NCCN2CCOCC2)c2ccccc21	nt	-27	nt	-19	nt	nt	4	5
COc1ccc(C2c3c(ncn(CCN4CCOCC4)c3=N)Oc3ccc4ccccc4c32)cc1 (stereo unspecified)	-4	-12	-2	-58	26	+	4	-2
COC(=O)Cc1ccc(NC(=S)N2CCCCC2C)cc1 (stereo unspecified)	-13	-16	-4	-8	8	i	-4	-1
O=C(CN1CCCCCC1)NCCc1ccc(F)cc1	-2	-9	4	nt	-5	nt	11	3
CCCCN1CC(O)=C(c2nc3ccccc3[nH]2)C1=N	6	-21	2	-65	1	i	4	-3
CCOC(=O)C(C)N1c2cccc3cccc(c23)S1(=O)=O (stereo unspecified)	nt	-10	nt	-40	nt	nt	17	-6
CCN(CC)C(=O)CSc1nnc2nnc3cc(Cl)ccc3n12	?	-4	?	43	18	i	-8	8

The closing two records of the section above are carried over, then new ones follow.
SMILES	eIF4H FP inh	UUG fidelity	PABP polyA inh	HIV Env fusion	CSC inhib	Rce1 inh	MT1-MMP act inh	MT1-MMP act inh RFP	others
CCOC(=O)C(C)N1c2cccc3cccc(c23)S1(=O)=O (stereo unspecified)	nt	-10	nt	-40	nt	nt	17	-6
CCN(CC)C(=O)CSc1nnc2nnc3cc(Cl)ccc3n12	?	-4	?	43	18	i	-8	8
COc1ccccc1NC(=O)Cn1nnc(C(=O)Nc2ccccc2)c1N	-5	4	4	-11	7	i	28	-3
O=C(CN(Cc1ccco1)C(=O)CNS(=O)(=O)c1ccc(Cl)cc1)NCc1ccco1	1	-13	1	6	-10	i	2	4
C/C(=N/NC(=O)c1cccs1)c1cccc(NC(=O)C2CC2)c1	4	-12	7	nt	12	i	6	7
O=C(c1ccc(Cl)c(NC2=NC3CS(=O)(=O)CC3S2)c1)N1CCN(c2ccccc2)CC1 (stereo unspecified)	-3	-15	-1	6	-6	i	-4	0
CC1(C(=O)NS(=O)(=O)c2cccc(F)c2)CCN1C(=O)Cc1cc(F)ccc1F (stereo unspecified)	nt	-15	nt	6	nt	nt	-1	4
COc1ccc(Nc2nc(-c3cccc([N+](=O)[O-])c3)nc3ccccc23)cc1	-6	-7	11	4	124*	i	0	-11
CC(C)N(Cc1ccccc1)S(=O)(=O)c1ccc(Cl)nc1	nt	nt	nt	-1	nt	i	-6	-3
CN(C)c1ccc(-c2ccc([C@H]3[C@@H]4C=CCC[C@@]4(C)C(=O)N3Cc3ccccc3)c(F)c2)cc1	-8	-11	4	nt	44	i	1	-8
O=C(Cn1nnc2ccccc21)NNC(=S)NC1CCCCC1	-7	-18	-11	10	-8	i	2	6
C=CCn1c(O)c(N=NC(=O)c2ccc3c(c2)OCO3)c2ccccc21	-1	-14	-4	nt	-14	i	2	6
O=C(C1=C(O)C(=O)N(CCOCCO)C1c1cccs1)c1cccs1 (stereo unspecified)	-3	-12	1	nt	-11	i	3	5
CC(=O)Nc1ccc(NC(=O)C(C)OC(=O)c2ccccc2C(=O)c2ccc(Cl)c([N+](=O)[O-])c2)cc1 (stereo unspecified)	6	5	-5	-23	-11	i	0	-10
CCN(CC)S(=O)(=O)c1cc(NS(=O)(=O)c2cccs2)ccc1C	nt	-27	nt	?	-8	nt	2	0
Cc1cc(C)cc(NC(=O)CS(=O)(=O)c2ccccc2)c1	-5	4	-17	7	-6	i	0	-2
Cc1ccc(S(=O)(=O)N(CC(=O)NCCSCc2ccco2)c2cc(C)ccc2C)cc1	nt	-3	nt	-140	8	i	-9	-7
Cn1ncc2c(N3CCOCC3)ncnc21	-8	-18	-8	nt	0	i	-9	3
